Rango dissoc inh – qHTS Assay for Inhibitors of RanGTP induced Rango (Ran-regulated importin-beta cargo) - Importin beta complex dissociation | Snurportin-1 (Homo sapiens) + GTP-binding nuclear protein Ran (Homo sapiens) + Importin … | Biochemical FRET Rango-importin beta, RanGTP-induced dissociation | Potency, µM (series often up to 46.1 µM), for the others: at the top dose activity change, negative = inhibition | actives 0.071% (n = 340,000); active means falling FRET ratio curve, often poorly fitted, with flat reads before Ran was added; inconclusive means other falling curves, or compound fluorescence or quenching; inactive means flat or rising ratio curve;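 also: potency is read from the fitted curve at half-maximal effect; % of control where 0% means no effect; nearly all actives have a fitted effect of over 45% in size; -100% = wells without RanGTP and RCC1; the record marks most hits as doubtful in a second field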
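Compounds preincubate 5 min with complex of recombinant Rango and importin beta in PBS with 1 mM DTT. Ran (0.6 uM) loaded with 2 mM GTP plus 0.2 uM RCC1 starts dissociation; FRET is recorded 45 min later.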
miR-21 reporter – qHTS Assay for Modulators of miRNAs and/orActivators of miR-21. Potency, µM (top dose mostly 38.3 µM), without a hit: at the top dose reporter change, positive = more light. HeLa miR-21 FLuc reporter, luciferase, 48 h. 340,000 tested, under 10 active; active = well fitted rising curve with a large enough effect; inconclusive = small, poorly fitted or top-dose-only effect; inactive = no such curve, though single readings can be large or run the other way;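 also: % of control where 0% means no effect; miR-21 action dims this reporter so a rising signal means less miR-21 action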
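Compounds were titrated across several concentrations (up to approximately 40 uM) and incubated 48 hours with HeLa miR-21-FLuc reporter cells (miR-21 target sequence downstream of FLuc, endogenous miR-21). Readout was firefly luciferase luminescence after lytic detection reagent.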
Rango-impB inh – qHTS Assay for Inhibitors of Rango (Ran-regulated importin-beta cargo) - Importin beta complex formation. Potency, µM (doses to about 92.2 µM), for the others: top-dose inhibition of complex formation. Importin subunit beta-1 (Homo sapiens), Q14974. actives 0.031% (n = 340,000). AID 540263, 2011. Rango CFP/YFP FRET sensor + importin beta, 45 min; active = rising FRET ratio curve, often small or poorly fitted; inconclusive = mostly compound fluorescence or quenching in the first reads; inactive = flat curves in all reads;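 also: potency is read from the fitted curve at half-maximal effect; 0% = DMSO wells and 100% = buffer wells lacking importin beta; nearly all actives have a fitted effect of over 15% in size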
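FRET biosensor (snurportin 1 IBB flanked by EYFP and cerulean), 50 nM, with compound 5 min, then 0.125 microM importin beta in PBS, 1 mM DTT, 0.02% Tween-20, 0.1% BSA. CFP/YFP ratio read after 45 min at room temperature; pre-read flags interference.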
GLA inh pH 4.5 – qHTS Assay for Inhibitors of Human alpha-Galactosidase at pH 4.5; Alpha-galactosidase A (Homo sapiens), P06280; purified enzyme, 4-MU-alpha-Gal fluorescence, pH 4.5; activity change, negative = inhibition, % at 105 µM; 230,000 tested, under 10 active; AID 1467, 2008; inconclusive = small, poorly fitted or top-dose-only inhibition, or a rising curve; inactive = flat fitted curve, though single readings scatter; no compound was filed as active;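 also: 0% = full activity with enzyme and -100% = basal without enzyme; dose as in the result columns while the protocol names 77 µM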
Target sequence (P06280 whole entry, looked up): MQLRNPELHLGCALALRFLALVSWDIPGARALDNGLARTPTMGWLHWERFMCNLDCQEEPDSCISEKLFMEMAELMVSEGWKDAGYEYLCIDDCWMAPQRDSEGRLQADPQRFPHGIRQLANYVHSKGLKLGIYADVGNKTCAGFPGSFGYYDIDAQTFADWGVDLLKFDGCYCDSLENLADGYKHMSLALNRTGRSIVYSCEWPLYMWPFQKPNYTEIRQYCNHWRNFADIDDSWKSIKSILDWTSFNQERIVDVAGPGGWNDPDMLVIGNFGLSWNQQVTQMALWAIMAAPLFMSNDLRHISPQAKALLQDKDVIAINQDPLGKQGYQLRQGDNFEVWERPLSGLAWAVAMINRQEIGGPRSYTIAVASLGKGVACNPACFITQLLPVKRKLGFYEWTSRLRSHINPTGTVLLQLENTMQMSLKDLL
Active calls of the source: *; ? = inconclusive; . = no result given; & = joins results of further samples. A portion of the library; the hit share may differ from the screen's.

The opening 4 entries, ahead of the listing:
SMILES | Rango dissoc inh | miR-21 reporter | Rango-impB inh | GLA inh pH 4.5
Cc1ccc(-c2nnc(SCC(=O)NC3CCCC3)n2N)cc1 | -2% | . | -0.6% | .
CCOC(=O)c1cc2c(nc1NC(=S)Nc1ccccc1)CC(C)(CC)OC2 (centres undefined) | -8% | 0% | 0.0% | 3
O=c1ccc2ccccc2o1 | 15% | 2% | 7.8% | -18&1
COc1cccc(-n2c(SCC#N)nnc2-c2cnccn2)c1 | 6% | -7% | 0.7% | 1

The listing, previewed entries included:
SMILES | Rango dissoc inh | miR-21 reporter | Rango-impB inh | GLA inh pH 4.5
Cc1ccc(-c2nnc(SCC(=O)NC3CCCC3)n2N)cc1 | -2% | . | -0.6% | .
CCOC(=O)c1cc2c(nc1NC(=S)Nc1ccccc1)CC(C)(CC)OC2 (centres undefined) | -8% | 0% | 0.0% | 3
O=c1ccc2ccccc2o1 | 15% | 2% | 7.8% | -18&1
COc1cccc(-n2c(SCC#N)nnc2-c2cnccn2)c1 | 6% | -7% | 0.7% | 1
COc1ccc2c(CCNC(=O)c3ccc([N+](=O)[O-])cc3)c[nH]c2c1 | 9% | -3% | 1.1% | -8
Cc1cc(Br)cc(Cl)c1OC(=O)c1ccncc1 | 40% | 1% | 0.6% | .
Cc1cccc(OCC2Cn3c(nc4c3c(=O)[nH]c(=O)n4C)O2)c1 (centres undefined) | 2% | -3% | -2.9% | .
CCOC(=O)C1CCN(C(=O)C2CCC(=O)N(CC3CCCCC3)C2)CC1 (centres undefined) | 4% | 0% | -4.0% | .
Cn1c(=O)oc2cc(S(=O)(=O)N3CCCC(C(=O)N4CCc5ccccc5C4)C3)ccc21 (centres undefined) | ? | 3% | -3.3% | 1
Cc1csc(=Nc2ccccc2)n1Cc1ccco1 | 0% | 1% | -0.9% | 1
O=[N+]([O-])c1ccc(/C=N/N/C(=N/c2ccccn2)c2ccccn2)cc1 | 3% | -27% | 0.3% | 3
Cc1cc(C)nc(N/N=C2/CCCC/C2=C\c2ccccc2)n1 | 5% | 25% | 3.2% | -7
N#CCCN1CCN(C2=NC(=O)C(=C3CCCCC3)S2)CC1 | -7% | -26% | -3.0% | -9
CN(C)S(=O)(=O)c1cccc(C(=O)Nc2ccc(N3CCOCC3)cc2)c1 | -13% | -2% | 6.2% | 1
Cc1ccc2c(c1)C(O)(CC(=O)c1ccc(C)s1)C(=O)N2 (centres undefined) | -21% | -2% | 3.7% | 12
O=C(Cn1cnc2scc(-c3cccc([N+](=O)[O-])c3)c2c1=O)NCc1ccco1 | 2% | 9% | -0.8% | -7
Nc1cc(N)nc(SCC(=O)N2CCCCC2)n1 | 14% | 0% | 2.0% | -2
CNNC(=S)Nc1cccc(C(F)(F)F)c1 | 14% | 4% | 1.0% | -10
COc1ccc(C(=O)NC(=S)NNC(=O)Cc2cccs2)cc1 | -7% | -16% | -2.4% | 3
O=C(NCCCN1CCCCCC1)c1cc2c(=O)oc3ccccc3c2s1 | -12% | -1% | -1.6% | .
O=C(C1CCN(S(=O)(=O)c2ccc(Br)s2)CC1)N1CCCCC1 | 12% | 8% | -5.4% | .
CCOc1ccccc1-n1cnc2cc(C(=O)NCc3ccco3)ccc21 | 10% | -15% | -0.4% | -3
COc1ccc(OC)c(C(=O)c2ccc(C(=O)Nc3ccc(NC(C)=O)cc3)cc2)c1 | 0% | 2% | 0.1% | .
COc1ccccc1-c1nnc(NC(C)=O)s1 | 1% | -40% | 0.1% | 1
O=C(/C=C/c1ccccc1)c1c[nH]c2ccccc12 | 8% | -33% | -1.2% | 4

Other entries:
SMILES | Rango dissoc inh | miR-21 reporter | Rango-impB inh | GLA inh pH 4.5
CCn1c(-c2csc3ccccc23)n[nH]c1=S | -7% | -7% | 0.0% | -1
NC(=O)CCCSc1nc2ccccc2[nH]1 | -15% | -4% | 0.7% | 8
COc1ccc(OC)c(S(=O)(=O)N2CCC(C(=O)NC3CCCCC3)CC2)c1 | -9% | 1% | 1.2% | .
O=C(Cc1ccc([N+](=O)[O-])cc1)NCc1cccnc1 | -7% | 0% | 0.2% | .
O=C(N/N=C/c1c[nH]c2ccccc12)c1ccc(Cl)cc1 | 1% | -36% | 1.8% | .
Cn1c(SCc2cccc(C#N)c2)nc2ccccc2c1=O | 8% | 22% | 1.8% | .
COc1cc2sc3ccc(C#CC4(O)CCCCC4)cc3c(=O)c2cc1OC | ? | . | ? | .
CN(C(=O)COc1ccc(Cl)cc1Cl)C1(C)CCS(=O)(=O)C1 (centres undefined) | 22% | . | -0.5% | .
O=c1oc2cc(Br)ccc2n1Cc1ccccc1 | 19% | -12% | ? | .
O=C(CCN1C(=O)/C(=C/c2cccs2)SC1=S)Nc1ccc(O)cc1 | -2% | -7% | -0.7% | .
CCOC(=O)c1c(C)[nH]c(C)c1S(=O)(=O)N1CCN(c2ccc(F)cc2)CC1 | ? | -8% | 2.1% | .
O=C(Nc1nncs1)c1ccc(S(=O)(=O)c2ccccc2)cc1 | 6% | -6% | 1.1% | 1
Cn1c(SCC(=O)NCCc2ccccc2)nnc1C1CCCCC1 | 13% | -2% | -2.9% | .
COc1ccccc1C1=NOC(C)(c2sc(-c3ccccc3)nc2C)C1 (centres undefined) | -14% | . | 3.5% | .
O=C(O)CC(NC(=O)C12CC3CC(CC(C3)C1)C2)c1ccc(OC2CCCC2)cc1 (centres undefined) | 11% | -12% | 0.1% | -6
CCc1ccc(C(c2c(C)nn(-c3ccccc3)c2N)c2c(C)nn(-c3ccccc3)c2N)cc1 | -4% | 9% | -3.3% | -11
CCn1c2ccccc2c2cc(NC(=O)COC(=O)c3cc(S(=O)(=O)N4CCCCC4)ccc3Cl)ccc21 | 0% | -22% | -0.5% | 3
CC1=C(C(=O)Nc2cccc([N+](=O)[O-])c2)C2(CCC(C)CC2)OC1=O (centres undefined) | 7% | 12% | 4.2% | -17
CCOC(=O)C1CCN(CC(O)COCc2ccc3c(c2)OCO3)CC1 (centres undefined) | 13% | -2% | -1.0% | -3
CN(C)CCn1c(C(=O)O)cc2ccccc21 | 15% | -4% | 0.2% | 9
CCOC(=O)c1cnc(-n2nc(C)cc2C)nc1NCCO | -1% | 0% | -0.9% | -8
O=C(CCc1ccccc1)Nc1nc2c(F)cc(F)cc2s1 | 0% | -40% | 0.0% | -8
Cc1ccc(C2=NOC(C)(c3nnc(-c4ccc(Cl)cc4)o3)C2)cc1 (centres undefined) | 0% | 1% | -5.5% | 1
COc1cccc(/C=C/C(=O)OCC(=O)NCc2ccc(Cl)cc2)c1 | 0% | 3% | -0.8% | 2
O=C(NN1CCOCC1)c1c(-c2ccccc2)sc2ccccc12 | -13% | . | 2.4% | .

Look-ups from above.
Value of CCOC(=O)c1cnc(-n2nc(C)cc2C)nc1NCCO under Rango-impB inh: -0.9%
Value of O=C(CCc1ccccc1)Nc1nc2c(F)cc(F)cc2s1 under Rango-impB inh: 0.0%

(cont.)
SMILES | Rango dissoc inh | miR-21 reporter | Rango-impB inh | GLA inh pH 4.5
Cc1cc(C)n(-c2cc(N3CCN(C(=O)c4cccc(Br)c4)CC3)ccc2[N+](=O)[O-])n1 | 23% | 18% | 1.4% | ?
COc1ccc(C(=S)N2CCN(c3ccccc3C)CC2)cc1 | 15% | -5% | -2.6% | 0
O=C(/C=C/c1cccc([N+](=O)[O-])c1)N1CCN(c2ccc(F)cc2)CC1 | 7% | 2% | -0.4% | -2
CCc1nnc(NC(=O)CN2C(=O)c3ccccc3C2=O)s1 | -10% | 0% | 13% | -9
CCOc1ccc(NC(=O)c2ccc3c(c2)CCN3S(C)(=O)=O)cc1 | 2% | 12% | 1.8% | .
CCn1c(O)c2ccc(C(=O)N=NC(=O)c3cccnc3)cc2c1O | 17% | -7% | 0.1% | 4
O=C(COCc1cc(-c2ccc3c(c2)OCO3)on1)N1CCCCC1 | -8% | -43% | -0.2% | .
CC(=O)c1ccc2c(c1)CC(C)C(=O)N2C (centres undefined) | -2% | -5% | 2.6% | 9
CCOC(=O)CC(=O)CSc1nc(-c2ccc3c(c2)OCO3)cc(C(F)(F)F)c1C#N | ? | 2% | ? | -6
COC(CNC(=O)C(=O)NCC1OCCN1C(=O)c1ccc(Cl)cc1)OC (centres undefined) | 6% | -4% | -2.0% | 7
CCOC(=O)c1nn(-c2ccc(C)cc2)c(C)c1C(C)=O | 0% | -19% | -0.4% | -5
Cc1ccc(-c2nnn(CC(=O)N(Cc3ccco3)C(C(=O)NC(C)(C)C)c3ccc(C)o3)n2)o1 (centres undefined) | 0% | 8% | 1.1% | -8
CNc1nc2c(Cl)cc(Cl)cc2s1 | 17% | -17% | 0.9% | 5
O=C(Cc1cccs1)NCc1ccccc1F | 12% | -34% | 0.9% | 1
CC(NC(=O)C1CCC(CNS(=O)(=O)c2ccccc2)CC1)c1ccc2c(c1)OCCO2 (centres undefined) | . | 6% | . | -8
Cc1ncc(CN2CCCC(C(=O)Nc3ccc(-c4cscn4)cc3)C2)cn1 (centres undefined) | 0% | -7% | -0.7% | .
CSc1nncc(-c2ccc(F)c(F)c2)n1 | -6% | -6% | 0.0% | -1
CC1CCCCC1NC(=O)c1ccc(NS(=O)(=O)c2ccc3[nH]c(=O)[nH]c3c2)cc1 (centres undefined) | -8% | . | -1.3% | .
O=C1NC(=O)C(Cc2ccccc2)(c2cccnc2)N1 (centres undefined) | 6% | -4% | 2.3% | -3
O=S1(=O)CC/C(=N\O)c2ccccc21 | 9% | -6% | -1.9% | 2
COc1ccc(C(=O)NC(=S)N2CCNC(=O)C2)cc1Br | 3% | -9% | -0.3% | -19
CCCNS(=O)(=O)c1ccc(OCC(=O)Nc2ccc3c(c2)OCO3)cc1 | -6% | -4% | ? | 4
O=c1cc(N2CCCCC2)c(-c2ccccc2)nn1Cc1cccc(Cl)c1 | 3% | -2% | -0.3% | -17
COc1ccc(OC)c2c(C)cc(N3CCN(C(=O)c4ccc(Cl)cc4)CC3)nc12 | 10% | -2% | -4.2% | -4
O=C(Cn1c(COc2ccccc2)nc2ccccc21)Nc1cc(Cl)cc(Cl)c1 | 0% | -6% | -2.1% | -4

Some of these compounds in order of their number in miR-21 reporter, highest first:
Molecule	miR-21 reporter
COc1ccc(OC)c2c(C)cc(N3CCN(C(=O)c4ccc(Cl)cc4)CC3)nc12	-2%
COC(CNC(=O)C(=O)NCC1OCCN1C(=O)c1ccc(Cl)cc1)OC (centres undefined)	-4%
O=c1oc2cc(Br)ccc2n1Cc1ccccc1	-12%
COc1ccc(C(=O)NC(=S)NNC(=O)Cc2cccs2)cc1	-16%

Next entries
SMILES | Rango dissoc inh | miR-21 reporter | Rango-impB inh | GLA inh pH 4.5
O=C(NC(=S)NCCC1=CCCCC1)c1ccco1 | 11% | -51% | 0.1% | 4
COC(=O)c1ccc(-n2cncn2)c([N+](=O)[O-])c1 | 3% | 1% | -1.6% | 4
Cc1nnsc1S(=O)c1ccccc1Cl (centres undefined) | 9% | 2% | 0.6% | .
CC(C)CNS(=O)(=O)c1ccc(CCC(=O)NCCC2=CCCCC2)cc1 | 2% | 2% | 0.8% | 6
CC1(C(=O)NC(=S)NNC(=O)c2ccncc2)CCCCC1 | -1% | 15% | 0.1% | 2
Cc1ccc(Sc2nnc(-c3ccccc3)cc2C#N)cc1 | -14% | -6% | 0.2% | 2
COc1cccc(CC2(CO)CCCN(CC3=Cc4cc(Cl)ccc4OC3)C2)c1 (centres undefined) | -17% | -2% | 0.7% | 1
CC1CC2(CCCCC2)Nc2ccc3ccccc3c21 (centres undefined) | ? | 6% | ? | -1
Cc1cccc(CSc2nn3c(=O)c(C)nnc3s2)c1 | 13% | 6% | -0.4% | 3
CCC(CC)C1C(C#N)=C(N)Oc2cc(C)oc(=O)c21 (centres undefined) | 10% | -2% | 0.1% | 2
O=C(NCc1cccc(C(F)(F)F)c1)C1CC(c2ccccc2C(F)(F)F)=NO1 (centres undefined) | ? | ? | 0.4% | -2
OCC[C@H]1C[C@H](O)[C@@H](O)[C@]2(OCc3ccccc32)O1 | -3% | . | -2.4% | .
